Ecoli rRNA inh: selective bacterial rRNA inhibition in E. coli | E. coli WT GFP vs humanized-ribosome RFP mutants, fluorescence, 24 h; active compounds read low; DMSO median 0, no signal -100 | GFP signal change (wild-type ribosome), % (no concentration beside the values) | 1.6% of 350,000 active | AID 720706;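 active = significant combined selectivity score with lowered wild-type GFP, culture density cut under 30%, mutant RFP and density less affected; inactive = any of these conditions unmet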; note: one replicate is shown; some compounds called inactive have numbers as strong as hits
Ecoli rRNA inh OD600: further read-out of Ecoli rRNA inh, marked with its call; OD600 change, %; measured here: OD600 growth;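 optical density of the mix in the first replicate; 0 = DMSO median and -100 = no signal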
Ecoli rRNA inh RFP: further read-out of Ecoli rRNA inh, marked with its call; RFP signal change, %; measured here: RFP humanized mutant strains;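 first replicate; 0 = DMSO median and -100 = no signal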
Starred values were filed as active, the others as inactive; & = joins results of further samples. This is a subset, so the mix of outcomes need not match the whole.

SMILES	Ecoli rRNA inh	Ecoli rRNA inh OD600	Ecoli rRNA inh RFP
C[C@@H]1CN([C@@H](C)CO)C(=O)c2cc(C#Cc3ccccc3F)cnc2O[C@@H]1CN(C)C(=O)C1CCCCC1	-9.9	-32.0	24.9
O=C(C[C@@H]1CC[C@@H](NC(=O)c2ccncc2)[C@@H](CO)O1)NCC1CCCCC1	4.4	2.0	-1.0
C[C@H]1CN([C@@H](C)CO)C(=O)c2cccc(NC(=O)C3CCOCC3)c2O[C@@H]1CN(C)C(=O)Nc1cccc2ccccc12	0.3	1.8	-1.1
CCCC(=O)N1CCOCC1c1cc(C(=O)Nc2ccccc2)no1 (stereo unspecified)	5.5	8.6	-0.8
O=C1Nc2cnc(Cl)nc2Nc2ccccc21	2.7	7.3	2.5
COCCNC(=O)C[C@@H]1C[C@H]2c3cc(NC(=O)C4CCOCC4)ccc3O[C@H]2[C@@H](CO)O1	-2.6	-0.2	-1.6
O=C(CCN1CCCCC1)N[C@@H]1CC[C@H](CCNS(=O)(=O)c2ccccc2)O[C@@H]1CO	2.7	-2.0	-1.1
Cc1ccc(C)c(C(O)c2ncc(-c3cccc4ccccc34)[nH]2)c1 (stereo unspecified)	-38.5	-63.8	-4.5
O=C(NCc1ccco1)c1c(Cl)cccc1Cl	1.9	13.4	5.6
COCc1cn(CC[C@@H]2CC[C@@H](NC(=O)Nc3c(C)noc3C)[C@@H](CO)O2)nn1	-1.0	3.0	-4.0
C[C@@H]1CCCCO[C@H](CN(C)Cc2ccccc2)[C@H](C)CN([C@@H](C)CO)C(=O)c2cc(NC(=O)c3ccccc3)ccc2O1	-1.7	0.2	-1.6
C[C@H](CO)N1C[C@H](C)[C@@H](CN(C)Cc2ccc3c(c2)OCO3)Oc2ccc(NC(=O)Nc3ccccc3)cc2CC1=O	2.5	-15.7	-2.4
Cc1noc(C)c1NC(=O)N(C)C[C@@H]1OCc2cnnn2CCCC(=O)N([C@@H](C)CO)C[C@@H]1C	3.3&3.8	17.2&7.4	-3.2&-1.8
CNC[C@@H]1Oc2ccc(NC(=O)Nc3ccc(C(F)(F)F)cc3)cc2CC(=O)N([C@@H](C)CO)C[C@H]1C	0.3	11.0	4.9
OC[C@@H]1CN(CCN2CCOCC2)C[C@H](n2cnc3c(NC4CC4)ncnc32)O1	12.1	21.2	1.3
O=C([C@H]1N[C@H]2c3ccc(C4=CCCCC4)c(=O)n3C[C@H]2[C@@H]1CO)N1CCC(Cc2ccccc2)CC1	-3.3	-30.8	17.6
COc1ccc(CN(C)C[C@@H]2Oc3ccc(NC(=O)NC4CCCCC4)cc3C(=O)N([C@H](C)CO)C[C@H]2C)cc1	2.4	5.0	0.6
CCNC(=O)C1(C)CCN(C(=O)c2ccc(C(=O)OC)cc2)C1 (stereo unspecified)	13.3	15.3	5.2
Cc1ccc(S(=O)(=O)N(C)C[C@H]2Oc3c(NC(=O)Nc4ccc5c(c4)OCO5)cccc3C(=O)N([C@H](C)CO)C[C@@H]2C)cc1	-6.6	-13.4	2.4
COc1ccc(Cc2c(-c3cccc(Cl)c3)nc3ccc(C)cn23)c(C)c1	5.1	0.7	5.4
CC(C)CC#Cc1ccc2c(c1)O[C@H](CN(C)C(=O)CC1CC1)[C@@H](C)CN([C@@H](C)CO)S2(=O)=O	-25.9	-53.5	30.8
CC(C)NC(=O)N(C)C[C@@H]1Oc2ccc(NC(=O)Nc3ccccc3)cc2C(=O)N([C@@H](C)CO)C[C@H]1C	5.9	7.1	0.7
C[C@@H]1CN([C@H](C)CO)C(=O)c2cc(NC(=O)C3CC3)ccc2O[C@H]1CN(C)Cc1ccc(-c2ccccc2)cc1	-1.0	-9.8	1.8
C[C@@H](NC(=O)C[C@H]1CC[C@@H]2[C@H](COC[C@H](O)CN2Cc2cc(F)ccc2F)O1)c1ccccc1	-1.8	-4.4	-4.5
Cc1noc(C)c1S(=O)(=O)Nc1ccc2c(c1)C(=O)N([C@@H](C)CO)C[C@@H](C)[C@H](CN(C)C(=O)NC1CCCCC1)OCCCC[C@@H](C)O2	0.1	-5.2	1.9

6 of the entries above in order of their number in Ecoli rRNA inh RFP, highest first.
SMILES | Ecoli rRNA inh | Ecoli rRNA inh OD600 | Ecoli rRNA inh RFP
O=C([C@H]1N[C@H]2c3ccc(C4=CCCCC4)c(=O)n3C[C@H]2[C@@H]1CO)N1CCC(Cc2ccccc2)CC1 | -3.3 | -30.8 | 17.6
CNC[C@@H]1Oc2ccc(NC(=O)Nc3ccc(C(F)(F)F)cc3)cc2CC(=O)N([C@@H](C)CO)C[C@H]1C | 0.3 | 11.0 | 4.9
COc1ccc(CN(C)C[C@@H]2Oc3ccc(NC(=O)NC4CCCCC4)cc3C(=O)N([C@H](C)CO)C[C@H]2C)cc1 | 2.4 | 5.0 | 0.6
O=C(C[C@@H]1CC[C@@H](NC(=O)c2ccncc2)[C@@H](CO)O1)NCC1CCCCC1 | 4.4 | 2.0 | -1.0
COCCNC(=O)C[C@@H]1C[C@H]2c3cc(NC(=O)C4CCOCC4)ccc3O[C@H]2[C@@H](CO)O1 | -2.6 | -0.2 | -1.6
COCc1cn(CC[C@@H]2CC[C@@H](NC(=O)Nc3c(C)noc3C)[C@@H](CO)O2)nn1 | -1.0 | 3.0 | -4.0

Carrying on:
SMILES	Ecoli rRNA inh	Ecoli rRNA inh OD600	Ecoli rRNA inh RFP
CC1(C)CC(=O)C=C(c2ccc(-c3cnn(Cc4ccccc4)c3)cc2)C1=O	6.4	-17.1	-6.6
C[C@@H]1CCCCO[C@H](CN(C)C)[C@H](C)CN([C@@H](C)CO)C(=O)c2cc(NS(=O)(=O)c3cn(C)cn3)ccc2O1	3.3	6.2	-1.0
CCCNC(=O)C[C@H]1CC[C@H]2[C@H](COc3ccc(NC(=O)Nc4c(C)noc4C)cc3C(=O)N2C)O1	-0.3	-0.5	1.5
O=C(COC(=O)c1cccc(S(=O)(=O)N2CCCCC2)c1)NCc1cccc(Cl)c1	-15.1*	-10.3*	7.0*
COc1ccc(-c2ccc3c(c2)[C@H]2[C@H](CCN2C(=O)CN2CCOCC2)[C@H](CO)N3)cc1	-2.3	8.2	-5.2
CC(C)NC(=O)N1CC(=O)N2[C@H](CO)[C@@H](c3ccc(/C=C/c4ccccc4)cc3)[C@H]2C1	-54.9	-77.3	-14.7
COC(=O)CCCn1cc(CN2CC(N3CCN(Cc4ccccc4F)CC3)CS2(=O)=O)nn1 (stereo unspecified)	23.6	12.5	5.9
CO[C@@H]1CN(C)C(=O)c2cc(NC(=O)C3CCC3)ccc2OC[C@@H](C)N(CC2CCCCC2)C[C@@H]1C	-1.0	-1.8	0.2
C/C=C/c1ccc2c(c1)O[C@@H](CN(C)C(=O)c1cccnc1)[C@@H](C)CN([C@@H](C)CO)S2(=O)=O	0.6	-5.8	0.6
C[C@H](CO)N1C[C@H](C)[C@@H](CN(C)Cc2ccc(C(F)(F)F)cc2)Oc2ccc(NS(=O)(=O)c3cn(C)cn3)cc2CC1=O	-5.1	-13.2	0.8
C[C@@H]1CN([C@H](C)CO)C(=O)c2cc(NC(=O)C3CCCCC3)ccc2O[C@@H]1CN(C)S(=O)(=O)c1ccc(F)cc1	0.5	-5.8	-3.8
COc1ccc(OC(=O)N(C)C[C@H]2OCc3ccccc3-c3ccccc3C(=O)N([C@@H](C)CO)C[C@@H]2C)cc1	-2.5	-7.2	0.0
CCNC(=O)C1(C)CCCN(Cc2cccc3c2OCCO3)C1 (stereo unspecified)	7.4	5.5	2.4
C/C=C/c1ccc2c(c1)O[C@@H](CN(C)C(=O)c1cccnc1)[C@H](C)CN([C@@H](C)CO)S2(=O)=O	-4.9	-3.7	-2.8
COCc1cn(CC[C@H]2CC[C@@H](NC(=O)Nc3ccc(Cl)cc3)[C@@H](CO)O2)nn1	1.5	6.7	0.1
CCCNC(=O)C[C@H]1CC[C@@H]2[C@@H](COc3ccc(NC(=O)CCC)cc3C(=O)N2C)O1	0.0	4.7	-1.2
CCN1[C@@H]2c3ccc(/C=C/c4ccccc4)c(=O)n3C[C@H]1[C@H](CO)[C@H]2C(=O)NC1Cc2ccccc2C1	-4.0	-14.5	4.3
CN(C)Cc1cn(CC[C@@H]2CC[C@H](NC(=O)Nc3ccccc3F)[C@H](CO)O2)nn1	1.9	6.0	-0.3
CCOC(=O)C1=CCC2C(=O)N(CC)C(=O)C12 (stereo unspecified)	11.6	11.0	0.2
O=C(C[C@@H]1CC[C@@H]2[C@H](COC[C@H](O)CN2CCC(F)(F)F)O1)NCC1CC1	0.6	8.3	-1.7
N#Cc1ccc(-c2ccc([C@@H]3[C@H](CO)N4C(=O)CN(C(=O)C5CC5)C[C@@H]34)cc2)cc1	-3.5	3.1	-0.6
COCC(=O)N1CC2(C1)[C@H](c1ccc(-c3cccc(C)c3)cc1)[C@@H](CO)N2C(=O)C1CC1	-1.8	-6.9	2.1
O=C(C[C@H]1CC[C@H]2[C@@H](COC[C@@H](O)CN2S(=O)(=O)c2cccc(Cl)c2)O1)N1CCCCC1	-3.3	-5.8	1.5
COc1ccc(S(=O)(=O)Nc2ccc3c(c2)C(=O)N([C@H](C)CO)C[C@H](C)[C@H](CN(C)C(=O)c2ccncc2)OCCCC[C@@H](C)O3)cc1	0.1	2.7	-2.3
CN(C)C(=O)c1ccc(-c2ccc([C@H]3[C@@H](CO)N4CCCCN(S(C)(=O)=O)C[C@H]34)cc2)cc1	4.4	6.4	-0.7
Next part
SMILES	Ecoli rRNA inh	Ecoli rRNA inh OD600	Ecoli rRNA inh RFP
CC(C)[C@H](NC(=O)c1ccc(Cl)cc1Cl)C(=O)N1CCC[C@H]1C(=O)NCCc1ccccc1Cl	-37.5	-41.7	-4.1
O=C(O)C[C@H]1CC[C@@H](NC(=O)CCN2CCCCC2)[C@H](CO)O1	2.4	-2.5	-1.9
CCN(CC)CCN(C)C(c1cc2ccccc2o1)c1nnnn1C(C)(C)C (stereo unspecified)	14.7	1.2	4.1
C[C@H]1CN([C@@H](C)CO)S(=O)(=O)c2ccc(Br)cc2O[C@H]1CN(C)C(=O)CCN1CCCCC1	0.9	2.7	-3.7
COCC#Cc1ccc([C@H]2[C@H]3CN(Cc4ccncc4)CCCCN3[C@H]2CO)cc1	2.4	9.5	-2.4
CCCC#Cc1ccc2c(c1)O[C@@H](CN(C)C(=O)Nc1ccc(OC)cc1)[C@@H](C)CN([C@@H](C)CO)S2(=O)=O	-0.8	-3.4	6.5
COc1ccc(S(=O)(=O)Nc2ccc3c(c2)C(=O)N([C@H](C)CO)C[C@H](C)[C@H](CN(C)Cc2ccc(Cl)c(Cl)c2)O3)cc1	0.2	-15.1	6.0
N#C[C@@H]1[C@H](c2ccc(C3=CCCC3)cc2)[C@@H](CO)N1C(=O)NC1CCCC1	6.6	-43.0	14.6
C[C@@H]1CN([C@@H](C)CO)S(=O)(=O)c2ccc(C#CC3CC3)cc2O[C@H]1CN(C)Cc1ccncc1	-41.4	-63.9	-3.8
O=[N+]([O-])c1ccc(CN2CC(N3CC=CC3)CS2(=O)=O)cc1 (stereo unspecified)	18.1	16.2	3.6
CO[C@H]1CN(C)C(=O)c2ccc(NC(=O)C3CC3)cc2OC[C@@H](C)N(Cc2cccnc2)C[C@@H]1C	-0.4	-0.4	-2.0
C[C@@H]1CN([C@H](C)CO)C(=O)c2cc(C#CC3(O)CCCC3)cnc2O[C@@H]1CN(C)Cc1ccncc1	5.6	10.2	-3.4
COCC(=O)N1CC2(CCN(Cc3nccs3)CC2)c2c(n(C)c3cc(OC)ccc23)[C@@H]1CO	-2.9	3.0	-0.6
C[C@H](CO)N1C[C@H](C)[C@@H](CN(C)C(=O)C2CC2)OCc2ccccc2-c2c(n(C)c3ccccc23)C1=O	-1.6	-0.5	1.3
COc1ccccc1-c1noc(CCC(=O)Nc2cccnc2)n1	4.4	5.9	-4.3
O=C(COC(=O)c1cc(=O)c2ccccc2o1)NCc1ccc(Cl)cc1	16.6	17.1	-0.6
C[C@@H]1CN([C@@H](C)CO)C(=O)CCCn2nncc2CO[C@@H]1CN(C)C(=O)Nc1cccc(F)c1	0.5	3.6	4.5
C[C@H](CO)N1C[C@H](C)[C@@H](CN(C)C(=O)Nc2ccccc2)OCCCC[C@H](C)Oc2ccc(NS(=O)(=O)c3ccccc3)cc2C1=O	-0.6	-5.4	3.6
O=C(NCc1ccccc1)C(C1CC1)n1c(CSCCOc2ccccc2)nc2ccccc21 (stereo unspecified)	-12.7	-27.3	7.7
CO[C@@H]1CN(C)C(=O)c2ccc(NC(=O)C3CCC3)cc2OC[C@H](C)N(Cc2ccncc2)C[C@@H]1C	-3.4	-6.8	-0.1
CCCCCCCCN1C(=O)[C@H](CC(=O)NCCc2ccccc2OC)C[C@@]2(C(=O)OCC)CCC=C12	4.2	-7.2	7.9
C/C=C/c1cnc2c(c1)C(=O)N([C@@H](C)CO)C[C@H](C)[C@H](CN(C)C(=O)Nc1ccc(F)cc1)O2	1.6	-1.7	-4.3
CCOC(=O)C1(C)CCCN1C(=O)c1ccc(C(=O)OC)cc1 (stereo unspecified)	6.0	5.2	-0.8
COc1cccc(NC(=O)N(C)C[C@H]2Oc3cc(C#Cc4ccc(F)cc4)ccc3S(=O)(=O)N([C@@H](C)CO)C[C@H]2C)c1	-0.3	8.1	0.7
C[C@H](O)C#Cc1ccc([C@@H]2[C@@H](CO)N3CCCCN(CC4CCOCC4)C[C@@H]23)cc1	0.9	20.4	-0.1
COc1cccc(S(=O)(=O)N[C@@H]2CC[C@@H](CCn3cc(-c4ccccc4)nn3)O[C@H]2CO)c1	-0.2	-3.0	-0.3
CCc1nnc(NC(=O)c2ccc3c(=O)n4c(nc3c2)CCC4)s1	-5.0	3.0	-1.6
COc1ccc(NC(=O)Nc2ccc3c(c2)[C@H]2C[C@H](CC(=O)N(C)C)O[C@@H](CO)[C@H]2O3)cc1	1.5	-3.7	-0.8
O=C(C[C@@H]1CC[C@H]2[C@@H](COC[C@@H](O)CN2S(=O)(=O)c2ccccc2)O1)Nc1ccccc1	-2.0	3.1	-6.4
O=C(C[C@@H]1CC[C@@H]2[C@H](COC[C@H](O)CN2C(=O)c2ccccc2F)O1)N1CCCCC1	-0.4	7.4	0.8

Source: PubChem BioAssay
